ERG Ets-DNA blk: qHTS for Small Molecule Inhibitors of the ERG Ets/DNA interaction; Potency, µM (doses to about 76.9 µM), for the others: at the top dose FP activity, negative = inhibition, usual class: inhibitors; 370,000 tested, 0.028% active; Transcriptional regulator ERG (Homo sapiens), P11308; fluorescence polarization, His-ERG Ets domain / labelled DNA; active = well fitted inhibition curve with a large enough effect in the polarisation, with a control signal flat; inconclusive = small, poorly fitted or top-dose-only effect, or effect the other way, or a change in a side signal; inactive = no such curve, though single readings can be large or run the other way; the % refers to the polarisation;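 note: polarization taken with two DNA probes labelled with fluorescein and Texas red; potency is the fitted concentration of half-maximal effect; % of control where 0% means no effect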
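His-tagged ERG Ets domain (1 uM in the protein solution; 300mM KCl, 50mM Tris-HCl, 1mM EDTA, 1mM DTT, pH 7.5) received compound, then a probe mix of 5 nM fluorescein-DNA and 100nM Texas-615-DNA. Fluorescence polarization was read for both dyes.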
HP1b chromo inh: HTS for Inhibitors of HP1-beta Chromodomain Interactions with Methylated Histone Tails; AID 540317, 2011; AlphaScreen HP1-beta / biotin-H3K9me3 peptide binding; Potency, µM (top dose mostly 114 µM), inactives show at the highest dose activity change, negative = inhibition, hits mostly inhibitors; 390,000 tested, 0.56% active; note: potency is the fitted concentration of half-maximal effect; nearly all actives have a fitted effect of over 70% in size; inactives centre near 23
Target sequence (P83916 whole entry, looked up): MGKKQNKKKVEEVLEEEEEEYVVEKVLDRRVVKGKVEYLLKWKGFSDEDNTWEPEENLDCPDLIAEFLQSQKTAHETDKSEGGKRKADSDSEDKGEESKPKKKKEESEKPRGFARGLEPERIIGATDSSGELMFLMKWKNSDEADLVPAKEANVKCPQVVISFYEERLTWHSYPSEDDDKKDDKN
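Compound inhibition of the preformed complex between 50 nM HP1-beta and 50 nM biotinylated H3K9me3 peptide was read by AlphaScreen. Buffer was PBS pH 7.4 with 0.01% Tween-20. Incubations ran 30 min at room temperature, with 10 ug/mL donor/acceptor beads.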
G9a inh: qHTS Assay for Inhibitors of Histone Lysine Methyltransferase G9a | Histone-lysine N-methyltransferase EHMT2 (Homo sapiens), Q96KQ7 | G9a H3K9 monomethylation, AlphaScreen, 2 h | Potency, µM (titrated, usually from 102 µM), inactives show at the highest dose activity, negative = inhibition, actives largely listed as inhibitors | 350,000 tested, 8.8% active; note: potency is the fitted concentration of half-maximal effect; % is set by controls: 0 for no effect and ±100 for the full control effect; nearly all actives have a fitted effect of over 75% in size
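AlphaScreen read-out: biotin-H3K9 peptide (500 nM) methylation by 20 nM enzyme with 20 uM SAM, 2 h at room temperature after 15 min compound preincubation; anti-monomethyl H3K9 antibody plus donor/acceptor beads, 10 min dark.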
Pin1 inhibitor: qHTS Assay to Find Inhibitors of Pin1; Peptidyl-prolyl cis-trans isomerase NIMA-interacting 1 (Homo sapiens), Q13526; Pin1 FP peptide displacement, HiFluor488, 10 min; 390,000 tested, 0.009% active; Potency, µM (highest dose often 115 µM), for the others: at the top dose activity, negative = inhibition, usual class: inhibitors; active = well fitted inhibition curve with a large enough effect in the polarisation, with a control signal flat, not every such curve was filed as active; inconclusive = small, poorly fitted or top-dose-only effect, or effect the other way, or a change in a side signal; inactive = no such curve, though single readings can be large or run the other way; the % refers to the polarisation; note: potency is the fitted concentration of half-maximal effect; % is set by controls: 0 for no effect and ±100 for the full control effect
Target sequence (Q13526 whole entry, looked up): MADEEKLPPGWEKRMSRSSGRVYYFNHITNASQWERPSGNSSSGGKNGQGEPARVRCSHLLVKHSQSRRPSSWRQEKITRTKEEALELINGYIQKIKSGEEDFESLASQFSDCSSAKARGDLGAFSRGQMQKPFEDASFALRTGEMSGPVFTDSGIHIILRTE
GLS inh: qHTS for Inhibitors of Glutaminase (GLS). Glutaminase kidney isoform, mitochondrial (Homo sapiens), O94925. GLS enzymatic activity, qHTS titration. Potency, µM (series often up to 45.5 µM), for inactives: at the top dose activity change, negative = inhibition, most hits filed as inhibitors. 410,000 tested, 0.21% active. AID 624170, 2012; note: potency is the fitted concentration of half-maximal effect; % is set by controls: 0 for no effect and ±100 for the full control effect
Target sequence (O94925 whole entry, looked up, canonical isoform): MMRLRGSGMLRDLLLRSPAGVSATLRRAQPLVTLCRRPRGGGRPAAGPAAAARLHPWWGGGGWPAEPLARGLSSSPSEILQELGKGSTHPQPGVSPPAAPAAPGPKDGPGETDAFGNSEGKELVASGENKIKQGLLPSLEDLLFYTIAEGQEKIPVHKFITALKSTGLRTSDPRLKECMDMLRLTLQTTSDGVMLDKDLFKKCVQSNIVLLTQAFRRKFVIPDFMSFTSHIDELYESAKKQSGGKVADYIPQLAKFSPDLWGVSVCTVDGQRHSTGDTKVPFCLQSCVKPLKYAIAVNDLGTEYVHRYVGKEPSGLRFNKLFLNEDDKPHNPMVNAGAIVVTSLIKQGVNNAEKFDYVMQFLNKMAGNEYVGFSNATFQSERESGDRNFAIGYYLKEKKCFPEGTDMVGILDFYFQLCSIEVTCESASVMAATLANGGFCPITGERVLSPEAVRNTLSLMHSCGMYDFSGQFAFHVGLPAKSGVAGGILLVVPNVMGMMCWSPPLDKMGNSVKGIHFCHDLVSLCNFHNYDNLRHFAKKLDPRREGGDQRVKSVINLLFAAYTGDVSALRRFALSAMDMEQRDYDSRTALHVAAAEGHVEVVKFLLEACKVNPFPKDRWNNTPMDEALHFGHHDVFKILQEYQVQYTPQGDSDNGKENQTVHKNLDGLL
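Read-out is an Amplex red fluorescence increase coupled through glutamate oxidase and HRP, measured before and after 30 min room-temperature incubation. hKGA is in 45 mM KH2PO4 (pH 8.2) with 0.02% Tween-20; glutamine added as 1mM solution.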
PI4K2A block: qHTS for small molecular inhibitors of PI4K2A; Phosphatidylinositol 4-kinase type 2-alpha (Homo sapiens), Q9BTU6; purified PI4K2A, ADP-Glo luminescence, 1 h; active compounds read low; activity change, negative = inhibition, % at 76.9 µM; 420,000 tested, 0.13% active; AID 1346378, 2018; in the data active = activity change below about -50%; inconclusive = mostly about -30% to -49%;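 note: -100% = wells without enzyme as full effect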
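In this quantitative HTS, ADP production by PI4K2A was quantified luminescently after 1 h at ambient temperature; 100 microM adenosine served as plate-quality control.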
JMJD2A Tudor inh: qHTS Assay for Inhibitors of JMJD2A-Tudor Domain | Lysine-specific demethylase 4A (Homo sapiens), O75164 | AlphaScreen JMJD2A-Tudor / H3K4me3 peptide binding | Potency, µM (titrated, usually from 114 µM), for the others: at the top dose activity change, negative = inhibition, hits mostly inhibitors | 390,000 tested, 4.4% active | AID 504339, 2011; note: potency is the fitted concentration of half-maximal effect; % is set by controls: 0 for no effect and ±100 for the full control effect; nearly all actives have a fitted effect of over 50% in size
Tb PGK inh: qHTS Assay to Find Inhibitors of Phosphoglycerate Kinase | Phosphoglycerate kinase, glycosomal (Trypanosoma brucei brucei), P07378 | PGK/GAPDH coupled, Kinase-Glo luminescence, 60 min | Potency, µM (top dose mostly 57.5 µM), for inactives: top-dose activity change, negative = inhibition, usual class: inhibitors | 380,000 tested, 0.043% active | AID 602233, 2012; note: potency is the fitted concentration of half-maximal effect; % is set by controls: 0 for no effect and ±100 for the full control effect; nearly all actives have a fitted effect of over 60% in size
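Luminescent ATP detection (Kinase-Glo Plus) follows a 60-minute room-temperature incubation, with wells lacking PGK as controls. Buffer: 100 mM TEA (pH 7.6), 5 mM MgCl2, 0.01% Tween-20. Coupling enzyme GAPDH (100 nM final) supplies unstable 1,3-BPG in-well.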
Active calls of the source: *; i = inactive; ? = inconclusive; / = not tested or not shown; [ ] = dose if it differs, or a comment. Unless noted, calls come from the whole dose curve; as a rule, active = well fitted curve in the direction sought with a large enough effect; inconclusive = small, poorly fitted or top-dose-only effect, or another doubt; inactive = no such curve, though single readings can be large; an effect the other way counts as inactive or inconclusive. These rows are one share of the data; rates above refer to the full screens.

SMILES	ERG Ets-DNA blk	HP1b chromo inh	G9a inh	Pin1 inhibitor	GLS inh	PI4K2A block	JMJD2A Tudor inh	Tb PGK inh
Cc1ccc(OCc2nnc(SCC(=O)Nc3cc(C)on3)n2C)cc1	12%	44%[activator]	14%[12.7 µM]	-1%	-1%	1	-1%	-5%
CC1CCc2c(sc3ncnc(SCC(=O)N4CCN(C(=O)c5ccco5)CC4)c23)C1 (centres undefined)	/	/	3%[59 µM]	/	/	/	/	/
Cn1c(=O)n(C)c2cc(N3CCOCC3)c(NS(=O)(=O)c3ccc(C(C)(C)C)cc3)cc21	-1%	-1%	?	-1%	35%[activator]	1	-29%	i
O=C(CSCc1ccc([N+](=O)[O-])cc1)N/N=C/c1cccnc1	8%	32%	25µM*	-6%	4%	-7	4%	7%
CCOc1ccc(-c2cc(C(=O)N3CCN(c4cc(Cl)ccc4C)CC3)c3ccccc3n2)cc1	3%	1%	5%[59 µM]	0%	1%	-3	-13%	-7%
COc1ccc(CCNc2oc(COc3ccccc3)nc2C#N)cc1	-7%	?	?	-4%	3%	4	?	-13%
COc1ccc(S(=O)(=O)N2CCC(C(=O)NCCC3=CCCCC3)CC2)cc1OC	/	24%	?	1%	1%	-1	-14%	-2%[11.5 µM]
COc1ccc(OC)c(/C=C/C(=O)OCC(=O)Nc2nnc(-c3ccccc3)o2)c1	-6%	52%[activator]	18%[59 µM]	?	4%	-3	?	3%
Cn1c(SCC(=O)Nc2nccs2)nnc1-c1ccccn1	17%	23%	-1%	-2%	4%	-3	?	2%
Cn1cccc1C(C#N)c1ncc(C(F)(F)F)cc1Cl (centres undefined)	9%	-5%	0%[12.7 µM]	5%	12%	6	?	-8%
COc1ccc(Nc2nc(C(=O)N3CCc4cc(OC)c(OC)cc4C3)cs2)cc1	-12%	?	45µM*	?	15%	-3	?	0%
Cc1ccc(-c2nc3cccnc3s2)cc1NC(=O)Cc1ccccc1	4%	18%	-54%[59 µM]	1%	-1%	-1	?	i
CCCOc1ccc2[nH]cc(C(=O)O)c(=O)c2c1	6%	29%	?	4%	4%	4	2%	0%
COc1ccc(OC)c(CN2CCN(S(=O)(=O)c3ccc(NC(C)=O)cc3)CC2)c1	-23%	?	11µM*	-8%	0%	1	?	4%
O=c1cc(CN2CCc3ccccc32)c2ccc(O)cc2o1	1%	-5%	45µM*	-3%	0%	1	?	-3%
CC(C)=CCN1CCN(Cc2cnc(N3CCOCC3)s2)CC1CCO (centres undefined)	-3%	22%	16µM*	6%	0%	0	-5%	-3%
Cc1cccc(C)c1NS(=O)(=O)c1ccc(NS(=O)(=O)c2ccc3c(c2)OCCO3)cc1	-1%	27%	?	1%	8%	-7	-33%	-1%
Cc1ccc(OCc2ccc(-c3nc(C#N)c(NCc4ccccc4Cl)o3)o2)cc1	-6%	5%	-26%[59 µM]	11%	1%	-2	-25%	-6%
CN(c1ncnc2c1c(-c1ccccc1)cn2-c1ccc(F)cc1)C1CCCCC1	2%	41%[activator]	-17%[59 µM]	1%	-12%	-4	-33%	5%
Cc1ccc(C)c(-c2nnc(NC(=O)CS(=O)(=O)c3ccccc3)o2)c1	-4%	23%	?	-10%	2%	0	-28%	-11%
CCc1cc(C(=O)c2ccc(OC)cc2)c(N)s1	4%	?	?	11%	?	2	-33%	i
Cc1cc(C)c(O)c(-c2n[nH]c3c2C(c2cccc(O)c2)N(Cc2ccco2)C3=O)c1 (centres undefined)	-4%	1%	/	4%	-7%	9	-5%[11.4 µM]	i
CCN(CC)CCCNC(=O)CCCn1ncn2c(cc3occc32)c1=O	2%	23%	-4%[59 µM]	-3%	-1%	-1	-6%	/
Cn1cccc1Cc1nnc(SCC(=O)N2CCN(c3ccccc3)CC2)n1-c1ccc(F)cc1	0%	-30%	?	-5%	13%	-2	?	-3%
Clc1nnc(NN=C2CCCC2)c2ccccc12	-3%	-8%	-3%	-5%	-7%	3	?	i
(next part)
SMILES	ERG Ets-DNA blk	HP1b chromo inh	G9a inh	Pin1 inhibitor	GLS inh	PI4K2A block	JMJD2A Tudor inh	Tb PGK inh
COc1ccc(/C=C2\CCn3c2nc2ccccc2c3=O)cc1OC	-10%	36%	30%[activator][59 µM]	4%	-6%	-2	-9%	-1%
O=C(Cc1ccccc1)NNC(=O)c1cnccn1	/	11%	1.8µM*	-9%	7%	7	?	12%
CCCCSc1nnc2c(n1)OC(c1ccc(C)s1)Nc1ccccc1-2 (centres undefined)	1%	28%	-24%[59 µM]	-8%	-16%	1	-16%	-11%
CCOC(=O)c1cc(S(=O)(=O)NCc2ccc(F)cc2)[nH]n1	-3%	34%[activator][57 µM]	3.2µM*	0%	-4%	-4	-30%	-8%
CCCCn1nc(NS(=O)(=O)c2cccc3nonc23)c2cc3cccc(C)c3nc21	1%	46%[activator]	/	-7%	40%[activator]	-3	11%	8%
Cc1ccc(-c2ccc(C(=O)Nc3cccc(F)c3)o2)c2ccccc12	16%	4%	16µM*	79%[activator]	-3%	-1	-15%	10%
Nc1nc(NCc2ccco2)nc(N2CCN(Cc3ccccc3)CC2)c1[N+](=O)[O-]	-1%	-33%	35µM*	5%	-9%	2	?	8%
Cc1ccc(/C=C/C(=O)N2CCN(S(=O)(=O)/C=C/c3ccccc3)CC2)o1	9%	5%	7.1µM*	-2%	0%	0	-11%	-11%
CCOC(=O)Nc1cccc(Nc2ccccc2)c1	-6%	-3%	?	-1%	12%	1	?	-5%
Cc1cc([N+](=O)[O-])c2[nH]c(C(=O)N/N=C/c3ccccc3C(=O)O)c(-c3ccccc3)c2c1	8%	0%	?	?	?	-4	?	?
CN(C)/N=C/c1ccc(OS(=O)(=O)c2ccccc2)cc1	-2%	-12%	45µM*	0%	-5%	0	?	-9%
CCOc1ccc(NC2=CC(=O)CCC2)cc1	17%	18%	-22%	3%	30%	-1	-11%	6%
Cc1ccc(Nc2c(-c3ccccc3O)nc3cc(C)ccn23)cc1	3%	-22%	?	0%	1%	1	?	4%
COc1ccc(OCCNC(=O)CSc2ccc(C(F)(F)F)cc2[N+](=O)[O-])cc1	5%	16%	-8%[59 µM]	5%	9%	1	-11%	0%
COc1cccc(CNC(=O)C2CCN(C(=O)N3CCOc4ccc(Cl)cc43)CC2)c1OC	0%	13%	?	2%	0%	2	?	11%
COc1cc2c(cc1NC(=S)Nc1ccccc1C)oc1ccccc12	-3%	-22%	38%[2.33 µM]	7%	17%	4	-34%	7%
COC(=O)CSc1nc(NC(C)=O)nc(C)c1Br	-8%	31%	31%[12.7 µM]	-5%	1%	13	-5%	i
CC(C)(C)c1ccc(/C=C2\CCn3c2nc2cc(C(=O)O)ccc2c3=O)cc1	-9%	43%[activator]	-21%	-2%	?	0	-26%	/
CCOc1ccc(-c2ncnn2-c2sc3c(c2C#N)CCCCC3)cc1	-3%	?	?	?	6%	5	?	-7%
Cc1ccc(NC(=S)NC(NC(=O)c2ccccc2)C(Cl)(Cl)Cl)c(C)c1 (centres undefined)	6%	26%	-13%[59 µM]	15%	-1%	-1	-24%	i
Cc1cc(C)cc(N=c2c([N+](=O)[O-])nn(-c3ccc4c(c3)OCCO4)n2O)c1	1%	?	10µM*	-2%	-10%	3	?	-8%
Clc1ccc2c(c1)-n1cc(-c3ccccc3)nc1CO2	?	-11%	?	-6%	8%	0	-18%	6%
c1csc(-c2csc3nc(CN4CCOCC4)nc(NCc4ccc5c(c4)OCO5)c23)c1	0%	-32%	?	19%	27%	-3	?	-6%
CCOc1ccccc1-n1c(SCC(=O)NCc2ccco2)nnc1-c1ccncc1	-4%	12%	-45%[59 µM]	-3%	5%	-3	-15%	-3%
COc1ccc(CNC(=O)Cn2c(-c3ccccc3)cc(C(C)=O)c2C)cc1OC	3%	9%	-5%[59 µM]	4%	7%	-2	-13%	3%
(further entries)
SMILES	ERG Ets-DNA blk	HP1b chromo inh	G9a inh	Pin1 inhibitor	GLS inh	PI4K2A block	JMJD2A Tudor inh	Tb PGK inh
COc1ccc(C/C(N)=N/OC(=O)c2cccs2)cc1	-10%	64%[activator]	-32%	-1%	-6%	11	15%	-10%
Cc1cccc(/C=C2/Sc3ccc(C(=O)NCCN4CCCC4)cc3NC2=O)c1	-3%	-26%[57 µM]	35µM*	26%	1%	-3	?	8%
COc1ccc(/C=C(\C#N)C(=O)c2cccn2C)cc1	3%	5%	-25%	3%	-1%	-4	-8%	/
Cc1ccc(-n2c(CNc3ccc(F)cc3)nnc2SCC(=O)NCc2ccco2)cc1	13%	-15%	-4%[12.7 µM]	-2%	14%	-3	-27%	i
COc1ccc(/C=C2\CCn3c2nc2cc(C(=O)O)ccc2c3=O)cc1OC	-12%	14%	45µM*	-6%	?	-3	-32%	-7%
CCCc1nc(-c2cc3ccc(C)cc3[nH]c2=O)no1	0%	32%	-2%[59 µM]	5%	-2%	4	7%	-4%
O=C(Cc1cccc(C(F)(F)F)c1)Nc1ccccc1	7%	22%	/	2%	3%	3	-13%[11.4 µM]	-2%
CCOc1ccccc1-n1c(=O)c2ccccc2c2ccccc2c1=O	3%	33%	3.5µM*	-2%	11%	6	-33%	0%
O=C1C(=O)N(C/C=C/c2ccccc2)c2ccccc21	1%	-5%	-10%[2.33 µM]	0%	11%	14	-23%	0%
Cc1sc2nc(CN3CCCC3)nc(N3CCN(C(=O)c4ccco4)CC3)c2c1C	7%	7%	?	13%	1%	-3	?	6%
